Screening results: PubChem BioAssay, National Center for Advancing Translational Sciences (NCATS)
Sfp inh: inhibitors of Bacillus subtilis Sfp phosphopantetheinyl transferase | Biochemical Sfp PPTase activity, qHTS | Potency, µM, for the others: max response, negative = inhibition, actives largely listed as inhibitors | 310,000 tested, 3.5% active; active = well fitted inhibition curve with a large enough effect; inconclusive = small, poorly fitted or top-dose-only effect, or another doubt; inactive = no such curve, though single readings can be large or run the other way;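 also: the enzyme is Sfp with the accession as filed and its product quenches rhodamine fluorescence; potency is read from the fitted curve at half-maximal effect; 0% = enzyme reaction without inhibitor and -100% = no enzyme wells; top concentration of the series not given in the record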
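Fluorescence-quenching assay: 15 nM Sfp-PPTase preincubated 15 min at room temperature with compound, then 5 uM rhodamine-CoA and 12.5 uM BHQ-2-labelled YbbR peptide added. Fluorescence (ex 525/em 598 nm) read at start and after 30 min; difference gives rate.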
ClpP mod: qHTS Assay for Activators of ClpP; ATP-dependent Clp protease proteolytic subunit (Bacillus subtilis (strain 168)), P80244; purified B. subtilis ClpP, FRET peptide cleavage, 20 min; AID 651965, 2013; 340,000 tested, 1.9% active; Potency, µM (top dose mostly 57.5 µM), inactives show at the highest dose activity change, negative = active; active = well fitted falling curve with a large enough effect; inconclusive = small, poorly fitted or top-dose-only effect; inactive = no such curve, though single readings can be large or run the other way; also: potency is read from the fitted curve at half-maximal effect; the source files actives as falling curves though it sought activators and does not explain the sign; nearly all actives have a fitted effect of over 65% in size; many hits overshoot -100%
Target sequence (P80244 whole entry, looked up): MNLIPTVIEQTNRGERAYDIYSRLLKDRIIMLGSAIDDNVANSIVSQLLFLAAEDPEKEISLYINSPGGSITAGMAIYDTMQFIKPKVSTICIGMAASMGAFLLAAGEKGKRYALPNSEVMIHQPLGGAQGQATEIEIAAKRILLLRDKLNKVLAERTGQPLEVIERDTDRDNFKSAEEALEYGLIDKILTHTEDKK
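FRET quenching reversal measured ClpP activation: 10 microg/mL B. subtilis ClpP at pH 8 with the FRET-FV decapeptide, read at 430 nm after 320 nm excitation. The 20-min minus 0-min signal was scaled between DMSO/no-enzyme wells and ADEP (5.8 microM final).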
gsp agonist: agonists of gsp mutant (McCune-Albright syndrome) | gsp mutant cells, cAMP HTRF, 30 min; control for the full effect not named in the record | Potency, µM (highest dose often 76.9 µM), for inactives: at the top dose activation (cAMP increase), hits mostly activators | 340,000 tested, 0.13% active; active = well fitted activation curve with a large enough effect; inconclusive = small, poorly fitted or top-dose-only effect, or another doubt; inactive = no such curve, though single readings can be large or run the other way; cell line not stated here;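 also: phosphodiesterase inhibitor Ro 20-1724 added with compounds to block cAMP breakdown; potency is read from the fitted curve at half-maximal effect; nearly all actives have a fitted effect of over 60% in size; about a fifth of the inactives were tested at one dose only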
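Cells in DMEM/10% FBS with G418 were pretreated with compounds in DMSO plus […] (300 uM stock) for 30 min at 37C. cAMP was measured by HTRF (cAMP-d2 plus anti-cAMP antibody-K) after 30 min at room temperature.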
gsp antagonist: gsp mutant antagonism. AID 624288. Potency, µM (top dose mostly 76.9 µM), inactives show at the top dose activity change, negative = inhibition, hits mostly inhibitors. 340,000 tested, 0.4% active. gsp-mutant cells, cAMP HTRF, 30 min; control for the full effect not named in the record; active = falling curve of any shape with a large fitted effect; inconclusive = falling curve, mostly with a smaller effect; inactive = flat or rising curve; cell line not stated here;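 also: intracellular cAMP measured with PDE inhibitor Ro 20-1724 present during compound exposure; potency is read from the fitted curve at half-maximal effect; % is scaled to controls: 0 for no effect and ±100 for the full control effect; nearly all actives have a fitted effect of over 65% in size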
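HTRF cAMP read-out (cAMP-d2 plus anti-cAMP antibody-K in lysis buffer, 30 min RT). Before lysis, cells are exposed to compounds with […] for 30 min at 37C in DPBS containing Ca/Mg, BSA and Tween 20.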
TRPV1 PAM: enhances activation of the human vanilloid receptor TRPV1. TRPV1-expressing cells, Fluo-8 calcium influx, capsaicin EC20 potentiation; host cell line not named in the record; control for the full effect not named in the record. potentiation, % at 8.33 µM. AID 540277. 320,000 tested, 0.02% active; active means potentiation above 80%; inconclusive means 30% to 80%; inactive means below 30%; also: 0% is about no effect
Target sequence (Q8NER1 whole entry, looked up): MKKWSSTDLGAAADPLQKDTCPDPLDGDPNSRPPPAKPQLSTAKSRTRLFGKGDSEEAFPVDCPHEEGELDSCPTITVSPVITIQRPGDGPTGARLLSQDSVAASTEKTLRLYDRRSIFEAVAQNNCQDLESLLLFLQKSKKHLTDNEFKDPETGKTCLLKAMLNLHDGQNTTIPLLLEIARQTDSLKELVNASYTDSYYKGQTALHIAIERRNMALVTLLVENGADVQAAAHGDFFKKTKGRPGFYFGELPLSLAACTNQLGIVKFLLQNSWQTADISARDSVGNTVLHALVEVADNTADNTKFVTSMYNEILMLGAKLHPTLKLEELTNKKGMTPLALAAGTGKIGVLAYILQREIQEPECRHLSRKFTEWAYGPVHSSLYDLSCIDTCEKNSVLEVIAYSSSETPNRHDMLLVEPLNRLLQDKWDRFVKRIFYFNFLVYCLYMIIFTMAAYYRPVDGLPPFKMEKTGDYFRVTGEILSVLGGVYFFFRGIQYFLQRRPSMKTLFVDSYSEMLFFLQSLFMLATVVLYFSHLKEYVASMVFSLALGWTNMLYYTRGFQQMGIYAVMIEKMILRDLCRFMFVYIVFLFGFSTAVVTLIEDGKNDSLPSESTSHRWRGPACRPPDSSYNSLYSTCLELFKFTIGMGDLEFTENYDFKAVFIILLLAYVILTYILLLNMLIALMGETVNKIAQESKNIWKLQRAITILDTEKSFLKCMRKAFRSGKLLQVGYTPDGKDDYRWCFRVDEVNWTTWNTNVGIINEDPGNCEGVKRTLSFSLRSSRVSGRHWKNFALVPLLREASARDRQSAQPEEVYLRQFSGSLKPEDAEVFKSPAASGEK
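Cells expressing TRPV1 were dye-loaded with Fluo-8 and read kinetically: 10 s baseline, 3 min after compound (agonist portion), then 2 min after EC20 capsaicin (allosteric enhancer portion). Calcium-bound dye fluorescence at 480/520 nm.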
Menin MLL FP FL: menin-MLL binding inhibition, fluorescein peptide; Fluorescence polarization, fluorescein-MLL peptide displacement from menin; FP activity change, % at 61.4 µM; 290,000 tested, under 10 active; AID 1766; inconclusive = falling polarisation curve, or a change in total fluorescence; inactive = total fluorescence flat and polarisation flat or rising; no compound was filed as active; the % refers to the polarisation; negative = inhibition;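 also: % of control where 0% means no effect; inhibitors lower the polarisation; unlabelled MLL peptide was the positive control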
D2 PAM: human D2 receptor positive allosteric modulation. 360,000 tested, 0.23% active. DiscoveRx D2 beta-arrestin cells, luminescence, 90 min; 100% = 57 uM dopamine signal. potentiation, % (no concentration beside the values); active = potentiation of 50% or more; inconclusive = 30% to 50%; inactive = 30% or less;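 also: compound concentration not given in the record; tested on top of an EC20 dose of dopamine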
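PathHunter beta-arrestin assay in DiscoveRx D2 cells. Compounds were added with an EC20 of dopamine (50 nM final) for 90 min at 37 deg C. Luminescence was read 1 h after detection reagent, with 57 uM dopamine as the EC100 control.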
* = called active by the depositor; ? = inconclusive; . = not tested or not shown; & = joins results of further samples; [ ] = another dose, or the depositor's remark. Outcome played no part in choosing rows (roughly 5.1% active in at least one column).

SMILES	Sfp inh	ClpP mod	gsp agonist	gsp antagonist	TRPV1 PAM	Menin MLL FP FL	D2 PAM
CC(C)(C)OC(=O)n1cc(C(=O)c2ccccc2O)cn1	-3%	.	15%[15.4 µM]	5%	-5	-3.2	-1
Cc1cc[n+](-c2[nH]c(=O)sc2/C=N/N=C(\[O-])CCn2c3ccccc3c3ccccc32)cc1	-12%	.	-25%	4%	.	-29	-5
COc1cccc(C2c3c(oc4ccccc4c3=O)C(=O)N2c2ccccn2)c1 (stereo not given)	6%	-1.2%	15%	-5%	1	0.1	-2
O=C(NC1CCCCC1)C(c1cccnc1)N(C(=O)CCl)c1cccc(Cl)c1 (stereo not given)	14%	-1.4%	-17%	0%	-6	5.4	-21
Cc1ccc(S(=O)(=O)N2CCC(=O)N(C(COCc3cccc(Cl)c3)Cc3ccccc3)CC2)cc1 (stereo not given)	1%	-1.0%	-43%[inhibitor]	-9%	5	5.9	-4
COc1ccc(NC(=O)c2cccc(OC(=S)N3CCOCC3)c2)cc1	16%	-4.8%	18%	-7%	-30	1.5	-18
CCOc1cccc(-c2nnc3sc(COc4ccccc4)nn23)c1	?	-0.4%	?	-11%	-6	0.2	-1
Cc1ccc(S(=O)(=O)N(C)c2ccc(OCC(=O)NCc3ccco3)cc2)cc1	-4%	1.6%	9%	-18%	-2	2.4	-20
Cc1sc(NC(=O)CN2C(=O)NC3(CCCC3)C2=O)nc1-c1ccc(F)cc1	.	1.3%	-6%	2%	11	.	-1
COc1ccc(CCn2c(C)cc(C(=O)COC(=O)c3ccc(O)cc3O)c2C)cc1	.	-9.3%	-11%	.	.	.	-5
CCOC(=O)CSc1nc(C)c(Oc2ccc(Cl)cc2Cl)c(=O)[nH]1	11%	.	-31%[15.4 µM]	-10%	3	5.8	1
COc1ccc(S(=O)(=O)NC(CC(=O)NC2CCCC2)c2ccco2)cc1 (stereo not given)	14%	-1.9%	-11%	4%	1	3.7	-2
O=c1c2cnn(-c3ccccc3)c2ncn1Cc1ccccc1F	3%	-9.1%	?	2%	-12	2.2	2
CCCCOc1ccc(C(=O)Nc2cc(C)c(OCC(=O)N3CCOCC3)c(C)c2)cc1	-1%	-0.2%	1%	-23%	-9	4.3	1
COc1ccc(-c2nn(CC(=O)NCCc3ccccc3)c(=S)n2C)cc1	-1%	1.5%	-10%[15.4 µM]	2%	2	4.4	21
O=C(Nc1ccc2c(c1)OCCO2)C1CCN(C(=O)c2ccccc2)CC1	7%	-0.5%	6%	-8%	3	-0.1	3
COC(=O)C(Cc1ccccc1)NC(=O)c1cc(=O)[nH]c2ccccc12 (stereo not given)	16%	.	-14%[15.4 µM]	.	-1	0.2	-33
COc1ccc(Cl)cc1NC(=O)COC(=O)C1COc2ccccc2O1 (stereo not given)	.	-0.5%	-16%	4%	-9	.	-6
NC(=O)CSc1nnc(Cn2c(=O)sc3ccccc32)n1-c1cccc(Cl)c1	10%	-1.8%	1%	-2%	0	0.8	4
CC(C)Oc1snc(Cl)c1C(N)=O	5%	?	?	6%	-16	0.4	12
O=C(Nc1ccccn1)Nc1ccccc1Cl	10%	1.2%	0%	4%	0	-9.8	-3
Cc1nc(Cl)c(C(=O)NCc2ccccc2)c(C)c1[N+](=O)[O-]	16%	.	-1%[15.4 µM]	4%	-8	1.8	1
N#Cc1ccc(COc2cccc3cccnc23)cc1	28%	.	22%[15.4 µM]	-3%	29	2.9	0
Cc1nn(-c2ccccc2)c(Cl)c1/C=N/NC(=O)c1[nH]ncc1Br	17%	3.0%	?	-8%	13	.	-8
C=CCn1c(Cc2c[nH]c3ccccc23)n[nH]c1=S	?	-0.1%	-12%	-18%	-10	1.3	-2
CCCCNC(=O)C(Cc1ccccc1)NS(=O)(=O)c1ccc2c(c1)c(=O)n(C)c(=O)n2C (stereo not given)	10%	-12%&-5.8%	?	0%	-8	3.2	-2
CC(=O)c1cc2c(cc1NC(=O)C1CC=CCC1C(=O)O)OCO2 (stereo not given)	11%	-7.3%	?	-6%	5	7.7	3
CC1=C(C(=O)OCc2ccccc2)C(c2cccc([N+](=O)[O-])c2)NC(=O)N1 (stereo not given)	15%	-0.5%	-45%[inhibitor]	-15%	1	-1.6	59*
O=C(NCCN1CCOCC1)C(=O)NCC1OCCN1S(=O)(=O)c1ccc(F)cc1 (stereo not given)	6%	-0.2%	2%	-12%	3	-0.3	9
CCOC(=O)C(=CNc1cc(C(F)(F)F)ccc1N1CCOCC1)C(=O)OCC	8%	-29%	3%	-20%	-34	2.5	9
Cn1c(SCc2nc3ccccc3[nH]2)nnc1-c1cnccn1	2%	-2.1%	1%	9%	-1	1.9	11
CC(=O)N1N=C(c2ccc(Cl)cc2)OC12CCCC2	8%	3.9%	5%	2%	6	-4.8	-17
O=[N+]([O-])c1ccc(OCCN2CCCCCC2)cc1	4%	.	20%[15.4 µM]	5%	-13	-0.2	-17
COc1cc([N+](=O)[O-])ccc1-c1ccc(/C=N\n2cnnc2)o1	-23%	-0.4%	13%	-2%	-3	?	-22
CCOc1ccc(C(=O)NC2CC(=O)N(c3ccc4c(c3)OCCO4)C2)cc1 (stereo not given)	.	-1.0%	11%	-2%	0	.	-3
O=C(Nc1ccc(F)c(F)c1)c1ccc(-n2cncn2)c([N+](=O)[O-])c1	.	-0.2%	-27%	4%	-12	.	2
CCCNC(=O)c1cn(CC)c2cc(N3CCN(C(=O)c4ccco4)CC3)c(F)cc2c1=O	0%	4.0%	0%	-23%	0	.	-6
Cc1cccc(-n2cc3c(=O)n(C)c(=O)n(C)c3c2)c1	-11%	.	9%	-3%	-11	-4.1	1
Clc1cccc(Cl)c1-c1nnc2ccc(N3CCOCC3)nn12	1%	-5.1%	-5%	-6%	-1	-3.8	-4
CCc1ccc(NC(=O)C(C)OC(=O)CC(NC(C)=O)c2ccccc2)cc1 (stereo not given)	17%	.	26%	0%	-4	-5.6	-4
C/C(=N\NC(=O)c1csc(C)c1C)c1ccco1	14%	-0.5%	?	2%	-3	5.7	-10
Cc1cc(C)n2nc(NCc3ccccc3)nc2n1	13%	10µM*	0%	5%	8	-0.5	3
Cc1ccc2c(c1)c1c(n2CC(O)Cn2c(C)nc3ccccc32)CCCC1 (stereo not given)	10%	-18%	-28%	-7%	18	-0.5	-4
COCc1cc(C)nc(OCC(=O)N/N=C/c2ccccc2O)c1C#N	23%	.	-1%[15.4 µM]	1%	12	0.4	-1
Cc1cc(Cl)ccc1OCC(=O)N1CCCN(C(=O)COc2ccc(Cl)cc2C)CC1	7%	2.3%	-9%	-28%	-11	3.3	-15
COc1cccc(CNC(=O)C2CCN(S(=O)(=O)c3ccc(-n4cnnn4)cc3)CC2)c1	0%	.	0%	-1%	2	6.2	0
Cc1ccccc1CSCC(=O)N1CCN(c2ccccc2)CC1	-4%	-0.7%	12%	-2%	6	.	1
CN(Cc1ccccc1)C(=O)CN(C)S(=O)(=O)c1ccc(F)cc1	21%	-0.3%	-10%	10%	0	-3.6	-10
COCCn1c(SCC(=O)N2CCCC(C)C2)nnc1-c1ccco1 (stereo not given)	-5%	.	28%	6%	3	.	-3
COc1ccc(S(=O)(=O)N2CCN(C(=O)CNC(=O)c3ccc4c(c3)OCO4)CC2)cc1	.	28µM*	-21%	2%	8	.	6
CC(C)c1ccc(OCC(=O)NCc2n[nH]c(=O)c3ccccc23)cc1	.	.	-11%[15.4 µM]	0%	-22	.	7
CCOc1ccc(NC(=O)N2CCN(CC)CC2)cc1	8%	0.7%	11%	-1%	3	1.3	1
Cc1ccccc1Nc1nc(N)nc(CSc2nnnn2C)n1	15%	-1.9%	12%	10%	5	0.3	-4
O=C(CCCc1ccncc1)c1ccccc1	.	1.2%	-1%	-4%	.	.	-19
CCC(C)(C)NC(=O)C(c1ccc(OC)cc1)N(CC1CCCO1)C(=O)CCC(=O)Nc1cc(C)on1 (stereo not given)	10%	0.3%	-17%	-16%	19	2.2	19
COC(=O)c1ccccc1NC(=S)N1CCN(C2CCCCC2)CC1	8%	0.1%	-64%[inhibitor]	10%	21	-3.0	-9
COc1cccc(N2CCN(S(=O)(=O)c3cccc4cccnc34)CC2)c1	-1%	.	-54%[inhibitor]	-14%	0	1.5	-2
CCc1ccc2oc(C(=O)Nc3ccc(S(N)(=O)=O)cc3)c(C)c2c1	-12%	.	?	-14%	8	4.1	-5
COc1ccc(C2Nc3ccccc3C(=O)N2Cc2ccco2)cc1CN1C(=O)c2ccccc2C1=O (stereo not given)	?	11%&2.9%	12%&-26%	-11%&-7%	7&-7	4.9&4.4	-6&-8
COc1cc(/C=N/Nc2nc(Nc3ccccc3)nc(-n3nc(C)cc3C)n2)cc(OC)c1OC	0%	.	?	-13%	7	4.9	23

3 compounds from above, sorted by their value in D2 PAM, lowest first:
SMILES | D2 PAM
CCCNC(=O)c1cn(CC)c2cc(N3CCN(C(=O)c4ccco4)CC3)c(F)cc2c1=O | -6
O=C(Nc1ccc(F)c(F)c1)c1ccc(-n2cncn2)c([N+](=O)[O-])c1 | 2
O=C(NCCN1CCOCC1)C(=O)NCC1OCCN1S(=O)(=O)c1ccc(F)cc1 (stereo not given) | 9

The results go on.
SMILES	Sfp inh	ClpP mod	gsp agonist	gsp antagonist	TRPV1 PAM	Menin MLL FP FL	D2 PAM
COc1ccc(C(CCN2CCN(c3ccccc3)CC2)c2c(O)cc(OC)cc2OC)cc1 (stereo not given)	1%&4%	0.6%	.	9%	24	5.6&5.3	-26
Cc1cc(C)n(C(=O)CCCn2nc(C)c([N+](=O)[O-])c2C)n1	18%	-0.3%	17%	3%	-6	2.5	-3
CCCCCCc1cc2cc(-c3nnc(-c4cc(OC)c(OC)c(OC)c4)o3)c(=O)oc2cc1O	9%	-5.0%	-7%	-2%	-4	?	-10
Cc1ccc(/C=N/NC(=O)c2nnn(-c3nonc3N)c2CSc2ccc(Cl)cc2)o1	1%	8.8%	3%	?	-10	-4.3	-23
